# Screening data from PubChem.
# KCNQ2 block – KCNQ2 channel blockers in CHO-K1 cells – cell-based, FluxOR thallium flux, B-score, primary screen (AID 2156); O88943; 20 min; stronger effect = lower value; only compounds with negative scores are shown here; some inactives read as strong as hits; B-score at 10 µM; 310,000 compounds, 1.1% hits;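 active = fluorescence ratio B-score at most minus 3 library SDs, with starting brightness B-score within 2 library SDs, cut at about -5.5 in these data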
# Target sequence (O88943 whole entry, looked up): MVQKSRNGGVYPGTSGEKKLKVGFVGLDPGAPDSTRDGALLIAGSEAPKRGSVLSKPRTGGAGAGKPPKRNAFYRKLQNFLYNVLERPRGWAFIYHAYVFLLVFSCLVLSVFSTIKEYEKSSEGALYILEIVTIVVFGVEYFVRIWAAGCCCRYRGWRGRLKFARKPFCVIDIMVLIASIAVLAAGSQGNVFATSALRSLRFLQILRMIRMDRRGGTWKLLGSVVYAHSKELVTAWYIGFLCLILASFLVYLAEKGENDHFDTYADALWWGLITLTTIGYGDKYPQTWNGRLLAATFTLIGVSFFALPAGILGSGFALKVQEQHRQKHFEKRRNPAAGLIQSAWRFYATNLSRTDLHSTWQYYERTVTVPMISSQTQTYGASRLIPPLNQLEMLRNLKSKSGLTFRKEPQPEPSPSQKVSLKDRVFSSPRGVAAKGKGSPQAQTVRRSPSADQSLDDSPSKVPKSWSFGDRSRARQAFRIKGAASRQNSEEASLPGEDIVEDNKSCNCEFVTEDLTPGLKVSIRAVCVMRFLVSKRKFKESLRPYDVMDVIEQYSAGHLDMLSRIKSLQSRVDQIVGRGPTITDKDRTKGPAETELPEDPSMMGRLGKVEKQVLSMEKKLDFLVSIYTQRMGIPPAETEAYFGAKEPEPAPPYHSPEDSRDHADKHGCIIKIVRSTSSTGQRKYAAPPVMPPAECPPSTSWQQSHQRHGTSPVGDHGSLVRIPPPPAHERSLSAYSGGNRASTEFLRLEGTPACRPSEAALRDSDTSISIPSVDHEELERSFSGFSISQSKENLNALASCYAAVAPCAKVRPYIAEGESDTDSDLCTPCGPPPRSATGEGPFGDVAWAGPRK
# KCNQ2 block baseline – recorded beside KCNQ2 block, whose call it bears; B-score; measured here: initial fluorescence intensity artifact check;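 brightness before thallium and not channel activity; 0 = typical well and far values either way flag optical interference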
# Numbers without * were called inactive; i = inactive. The list is partial; the hit share may differ from the screen's.
SMILES,KCNQ2 block,KCNQ2 block baseline
CC(C)c1ccc(N2C(=O)CC(Sc3ncn[nH]3)C2=O)cc1 (stereo not given),i,-1.9
COc1c(Cl)cc(Cl)cc1C(=O)Nc1ccccc1N1CCN(C(C)=O)CC1,i,-0.07
CCOc1cc(NC(=S)Nc2cccc(OC)c2)c(OCC)cc1NC(=O)c1ccc(C)cc1,i,-1.3
CC(=O)Nc1ccc(S(=O)(=O)NC2(C(F)(F)F)NC(=O)N(c3ccc(Cl)cc3)C2=O)cc1 (stereo not given),i,-0.14
O=C(CN1C(=O)NC2(CCCC2)C1=O)c1ccc(Cl)s1,i,-1.4
Cc1ccc(N(CCC#N)C(=O)CSc2ccc3c(c2)OCCO3)cc1,i,1.7
CC(C)C[C@H](NC(=O)c1[nH]cnc1C(=O)N[C@H](C)c1ccccc1)C(=O)OC(C)(C)C,i,1.8
C#Cc1ccc([C@H]2C=C(C(=O)OCC=C)O[C@@H](OCc3ccc(CO)cc3)C2)cc1,i,0.78
O=C(Cn1c(=O)oc2cc(S(=O)(=O)N3CCCC3)ccc21)N1CCN(C2CCCCC2)CC1,i,0.38
CCCCN(C(=O)C1CCC1)c1c(N)n(CC(C)C)c(=O)[nH]c1=O,i,0.47
CSCCC(NC(=O)c1ccc(Cl)cc1)C(=O)OCC(=O)Nc1cc(Cl)ccc1C (stereo not given),-6.8*,-1.7*
CCN(c1ccccc1)S(=O)(=O)c1cnc[nH]1,i,-1.8
Cc1cc(NC(=O)c2cccc(S(=O)(=O)N3CCOCC3)c2)no1,i,2
CCN(CC(=O)Nc1cccc(OC)c1)c1ncnc2sc(C)c(C)c12,i,-2
CNC(=O)CN(c1ccc(F)cc1)S(=O)(=O)c1cc(C)ccc1OC,i,0.29
CN(CCC#N)C(=O)COC(=O)c1ccc2c(=O)n3c(nc2c1)CCC3,i,-1.1
OCCN1CCN(c2nc(-c3ccccc3)c3cc(Cl)ccc3n2)CC1,i,0.03
CCSc1oc(-c2ccco2)nc1S(=O)(=O)c1ccc(F)cc1,i,-0.28
Cc1cccc(NC(=O)c2onc3c2CCCC3)c1C,i,-1.3
CC(C)N(Cc1nc(-c2ccccc2)no1)C(=O)c1ccc2c(c1)OCO2,i,0.37

# Record cards, as listed above:
# `Cc1cccc(NC(=O)c2onc3c2CCCC3)c1C` is entered as KCNQ2 block: i; KCNQ2 block baseline: -1.3
# `CCN(c1ccccc1)S(=O)(=O)c1cnc[nH]1` is entered as KCNQ2 block: i; KCNQ2 block baseline: -1.8
# `CCOc1cc(NC(=S)Nc2cccc(OC)c2)c(OCC)cc1NC(=O)c1ccc(C)cc1` is entered as KCNQ2 block: i; KCNQ2 block baseline: -1.3

# Additional compounds
SMILES,KCNQ2 block,KCNQ2 block baseline
Cc1ccc(S(=O)(=O)NCC2CCC(C(=O)N3CCN(C)CC3)CC2)cc1 (stereo not given),i,1.9
O=C1Cc2cc(S(=O)(=O)NCc3ccccc3Cl)cc3c2N1CCC3,i,-0.44
COC(=O)c1ccc(OCC(=O)N2CCCc3ccccc32)cc1,i,-1.7
O=C(c1coc(=O)c(Br)c1)N1CCCc2ccccc21,i,0.32
Cc1ccc(N2CC(=O)N(NC(=O)c3sc4nc(C)cc(C)c4c3N)CC2=O)cc1,i,-0.67
Cc1ccc(C2=Nc3ccccc3NC(C)(c3ccc(C)o3)C2)o1 (stereo not given),i,-1.3
O=C(Nc1ccc(C(=O)O)cc1)Nc1ccc([N+](=O)[O-])cc1,i,-0.05
Cc1ccc2nc(N(CCCN(C)C)C(=O)c3ccc(S(=O)(=O)N4CCCCCC4)cc3)sc2c1,i,-0.41
O=C(Nc1ccncc1)c1sc2ccccc2c1Cl,i,0.48
COc1ccc(Nc2nc(NC(C)(C)C)nc(N3CCOCC3)n2)c(OC)c1,i,-0.86
COC(=O)C(C)Sc1nc(NCc2ccccc2)nc(N(C)C)n1 (stereo not given),i,-0.88
Cc1ccccc1OCCn1c(CCNC(=O)C(C)C)nc2ccccc21,i,-2.2
COc1ccc(C(=O)NC2CCN(S(=O)(=O)c3ccc(F)cc3)CC2)cc1,i,1.2
O=C(c1ccco1)N1CCN(CCCCOc2cccc3ccccc23)CC1,i,-0.3
CC1CCN(C(=O)C2Cc3ccccc3CN2S(=O)(=O)c2ccc(F)cc2)CC1 (stereo not given),i,-2.5
COc1c(F)c(F)c(C(=O)O)c(Nc2ccc(C)cc2C)c1F,i,-0.9
Cc1ccc(-n2nc(C(=O)O)c(O)cc2=O)cc1,i,-1.8
CC(Sc1cccc[n+]1[O-])C(=O)Nc1ccc(Oc2ccccc2)cc1 (stereo not given),i,-1.6
Cn1c(=O)c2c(O)c([N+](=O)[O-])c(=O)n(C)c2n(C)c1=O,i,2
O=C1C2CCCCN2C(=O)N1CCCN1CCN(c2ccc(F)cc2)CC1 (stereo not given),i,-0.14

# Quoted from the listing.
# For KCNQ2 block baseline, CC(=O)Nc1ccc(S(=O)(=O)NC2(C(F)(F)F)NC(=O)N(c3ccc(Cl)cc3)C2=O)cc1 (stereo not given) shows -0.14
# For KCNQ2 block baseline, Cc1ccc(N(CCC#N)C(=O)CSc2ccc3c(c2)OCCO3)cc1 shows 1.7
# For KCNQ2 block, CSCCC(NC(=O)c1ccc(Cl)cc1)C(=O)OCC(=O)Nc1cc(Cl)ccc1C (stereo not given) shows -6.8*

# The list continues.
SMILES,KCNQ2 block,KCNQ2 block baseline
Cc1ccc(/C=C(\NC(=O)c2ccccc2)C(=O)N2CCCC2C(=O)O)cc1 (stereo not given),i,26
O=C(NCC1CCCO1)c1cccnc1Nc1ccccc1F (stereo not given),i,1.6
CC(C)NC(=O)NC(=O)COC(=O)c1ccc(F)cc1F,i,1.5
CSc1nnc(Cn2c(=O)sc3ccccc32)n1-c1ccccc1C,i,-0.07
CCN(CC)S(=O)(=O)c1ccc(/C=C/C(=O)OCC(=O)N(C(C)C)C(C)C)cc1,i,-0.87
O=C1OCCN1CCNCc1cn(-c2ccc(F)cc2)nc1-c1ccccc1Cl,i,0.11
Cc1[nH]c(=O)[nH]c(=O)c1NS(=O)(=O)c1ccccc1,i,1.9
C=CCOc1cccc(CNn2cn[nH]c2=S)c1,i,-0.25
CCC(=O)N1CCc2cc(S(=O)(=O)NC(Cc3ccccc3)C(=O)NC3CCCCC3)ccc21 (stereo not given),i,-0.21
Cc1nc(-c2ccccc2)sc1C1(C)CC(c2ccc([N+](=O)[O-])cc2)=NO1 (stereo not given),i,1.6
COc1ccc(C(=O)N2CCC(N3CCN(c4ccccc4)CC3)CC2)cc1,i,0.02
CC1(C)Cc2ccccc2C(=NCCCCCC(=O)O)N1,i,2.3
Cc1ccc(NC(=O)CCc2c(C)nn(-c3ccc(N4CCCCC4)nn3)c2C)cc1F,i,-0.06
COC(=O)CCC(=O)Nc1nnc(C(F)(F)F)s1,i,1.3
Cn1cccc1/C=N/NC(=O)c1sc2ccccc2c1Cl,i,-0.21
CC(=O)Nc1cc2c(cc1NC(=O)c1cnccn1)OCCO2,i,2.7
COc1ccc(NS(=O)(=O)c2ccc(S(=O)(=O)N3CCCC3)cc2)cc1,i,-0.36
COc1ccccc1CNC(=O)COC(=O)c1ccc(C)c(S(=O)(=O)N2CCCCC2)c1,-8.4*,0.08*
COc1ccc(C2NC3=C(CCC3)C3(C#N)C(OC)(OC)N=C(N)C23C#N)cc1 (stereo not given),i,-0.09
O=C(CCCN1C(=O)c2cccc3cccc(c23)C1=O)NCc1ccco1,i,-0.01
Cc1ccccc1N(CC(=O)NCCc1ccccc1)C(=O)CCC(=O)Nc1ccccn1,i,-0.25
CC(=O)c1c(C)[nH]c2ccccc2c1=O,i,1.4
CSc1ccccc1NC(=O)COc1ccc(Cl)cc1C,i,-0.5
CCCCCCCCCCC[N+](C)(C)CC/C=C1/c2ccccc2Sc2ccc(Cl)cc21,i,0.77
CC(C)(C)OC(=O)N/N=C/c1cccc([N+](=O)[O-])c1,i,-0.09
CC(=O)n1cc([C@@H]2C=C(C(=O)N3CCOCC3)O[C@H](OCCCCO)C2)c2ccccc21,i,-1.5
CC(C)N1CCCC(CNC(=O)CCc2nnc(CCCCc3ccccc3)o2)C1 (stereo not given),i,-0.2
CC(C)CCNC(=O)Cn1c(=O)oc2cc(S(=O)(=O)N3CCc4ccccc43)ccc21,i,-1.2
COc1ccc(NC(=O)CSc2nc3c(c(=O)n2C)SCC3)cc1OC,i,-1.2
O=C(NCCCN1CCOCC1)c1ccc(CS(=O)(=O)c2c(Cl)cccc2Cl)o1,i,-0.11
Cc1nc2cc(NCc3cc([N+](=O)[O-])ccc3O)ccc2n1Cc1ccccc1,i,-0.3
CC12CC3CC(C)(C1)CC(C(=O)NCc1ccncc1)(C3)C2,i,-0.34
c1ccc(Cc2cc(-c3ccccc3)on2)cc1,i,0.34
Cc1c(Br)c([N+](=O)[O-])nn1CC(=O)NCc1ccco1,i,1.2
COCc1cc(C)nc(OCC(=O)N/N=C/c2ccccc2)c1C#N,i,2.9
CCOC(=O)c1ccc(NC(=O)Cn2cc3c(n2)CCC(C)C3)cc1 (stereo not given),i,2.5
O=C(Nc1nc2ccccc2n1Cc1ccc(Cl)cc1)c1ccco1,i,1.6
CCOc1cccc2cc(C(=O)NCc3ccc(C)cc3)c(=N)oc12,i,0.2
O=C(CN1CCN(Cc2ccccc2)CC1)N1CCCCCC1,i,1.9
O=C(CN(C(=O)c1ccco1)c1cccc(F)c1)NCc1ccc(F)cc1,i,0.03
N#Cc1ccccc1OCC(=O)NC(=O)NCc1ccccc1,i,-1.8
CCOC(=O)N1CCN(C(=O)C2CCN(S(=O)(=O)c3cc(C)ccc3OC)CC2)CC1,i,-0.81
COc1ccc(-c2nnc(SCc3nc4ccccc4s3)n2C(C)C)cc1,i,-1.2
OC(CN1CCN(c2ccc(F)cc2)CC1)c1ccc(Cl)cc1 (stereo not given),i,-1.2
CC(C)CCn1c(=O)c2c(nc3n2CCCN3Cc2ccccc2)n(C)c1=O,i,-0.96
CN(O)/C=N/C(=S)Nc1ccc(Cl)cc1Cl,i,0.7
Cc1cc(C)n(-c2nnc(C)n2/N=C/c2ccccc2O)n1,i,-0.33
COc1cc(NS(=O)(=O)c2ccc(NC(=O)c3ccc([N+](=O)[O-])cc3)cc2)ncn1,i,2.1
COc1ccc(OC2CCN(S(=O)(=O)c3ccccc3)CC2)cc1,i,-0.02
CC(C)CN(C(=O)c1ccc2c(c1)OCCO2)c1c(N)n(Cc2ccccc2)c(=O)[nH]c1=O,i,0.27
Cc1cc2cc(C)c3nnc(SCC(=O)Nc4ccc(S(=O)(=O)N5CCCCC5C)cc4)n3c2cc1C (stereo not given),i,4
O=C(CCN1C(=O)/C(=C/c2ccc(Cl)cc2)SC1=S)Nc1cccnc1,i,0.87
O=C(Nc1ccccc1)c1ccccc1OS(=O)(=O)c1ccccc1,i,0.75
COc1ccc(CCNC(C(=O)Nc2cc(C)cc(C)c2)c2ccccc2)cc1 (stereo not given),-8.1*,-0.52*
Cc1cc(OCC(=O)NC(Cc2c[nH]c3ccc(O)cc23)C(=O)O)c2c(C)c(C)c(=O)oc2c1 (stereo not given),i,0.87
CCOc1ccc(NC(=O)CSc2nc3[nH]ncc3c(=O)[nH]2)cc1,i,0.03
O=S(=O)(c1cccc(-c2csc(-c3cccnc3)n2)c1)N1CCOCC1,i,0.69
CN1CCN(S(=O)(=O)c2cccc(C(=O)NCc3ccccc3Cl)c2)CC1,i,0.17
FC(F)(F)c1nc2ccccc2n1CCNc1nc(CN2CCCCC2)cs1,i,2.7
CCCOc1ccccc1N/C(=N/c1nc(C)cc(C)n1)NC(=O)Nc1ccc(Cl)cc1,i,-0.5

# Exported with tabs: entries from further up
Compound	KCNQ2 block	KCNQ2 block baseline
Cc1cc(OCC(=O)NC(Cc2c[nH]c3ccc(O)cc23)C(=O)O)c2c(C)c(C)c(=O)oc2c1 (stereo not given)	i	0.87
COc1cc(NS(=O)(=O)c2ccc(NC(=O)c3ccc([N+](=O)[O-])cc3)cc2)ncn1	i	2.1
O=S(=O)(c1cccc(-c2csc(-c3cccnc3)n2)c1)N1CCOCC1	i	0.69
COc1ccc(OC2CCN(S(=O)(=O)c3ccccc3)CC2)cc1	i	-0.02
CN(O)/C=N/C(=S)Nc1ccc(Cl)cc1Cl	i	0.7

# Following part:
SMILES,KCNQ2 block,KCNQ2 block baseline
CCNS(=O)(=O)c1ccc(NS(=O)(=O)c2cc(C)ccc2C)cc1,i,-0.04
Cc1noc(NS(=O)(=O)c2ccc(NC(=O)C(CC(C)C)N3C(=O)c4ccccc4C3=O)cc2)c1C (stereo not given),i,0.01
COc1ccc(NC(=S)N/N=C/c2cccn2Cc2ccc(F)cc2Cl)cc1,i,-0.87
COc1ccc(OC)c(-c2nc(C)sc2CC(=O)O)c1,i,0.39
O=C(CSc1nncn1-c1cccnc1)N(c1ccccc1)c1ccccc1,i,-2
O=C(NCCn1cc(SCc2ccccc2)c2ccccc21)c1ccccc1F,-8.2*,0.05*
CCc1c(C)nc2cc(-c3ccc(OC)c(OC)c3)nn2c1N1CCC(C)CC1,i,-0.28
Cc1ccc(S(=O)(=O)N2CCC(C(=O)Nc3ccc(S(=O)(=O)N4CCCC4)cc3)CC2)cc1,i,0.8
O=C(OCc1cccs1)c1ccccc1NS(=O)(=O)c1ccc2c(c1)OCCO2,i,0.01
O=C(O)c1cc([N+](=O)[O-])cc2c1nnn2O,i,1.5
CC(C)CN(C)Cc1c(C(=O)N2CCc3ccccc3C2)nc2ccc(Cl)cn12,-8.7*,-1.2*
O=Cc1ccc(OCC(=O)N2CCOCC2)cc1,i,1.4
CCCOc1ccc(N2C(=O)CC(N3CCC(c4nncn4CC)CC3)C2=O)cc1 (stereo not given),i,-0.21
Cc1cn(C(=O)c2ccccc2)c(=S)n1-c1ccc(Cl)cc1,i,-1
CC1CSC(N(C(=O)c2ccc(S(C)(=O)=O)cc2)c2ccc(Cl)cc2)=N1 (stereo not given),i,0.22
Cc1cccc(Nc2nc(-c3ccc(F)c(C)c3)cs2)n1,i,-0.05
CCOC(=O)C1=C(C)NC(C)=C(C(=O)OCC)C1C(=O)OCC(=O)NCCc1ccc(S(N)(=O)=O)cc1,i,1
CC(C)Sc1nc(N)c2c3c(sc2n1)CN(C)CC3,i,0.02
Cc1ccc(C(=O)C2CCNCC2)cc1,i,0.14
CN(/C=C/C(=C\C=[N+](C)c1ccccc1)OCCCS(=O)(=O)[O-])c1ccccc1,i,6.7
